# GLA inh pH 4.5 – alpha-galactosidase A (human) inhibition, pH 4.5 | P06280 | purified enzyme, 4-MU-alpha-Gal fluorescence, pH 4.5 | activity change, negative = inhibition, % at 105 µM | 230,000 tested, under 10 active; inconclusive = small, poorly fitted or top-dose-only inhibition, or a rising curve; inactive = flat fitted curve, though single readings scatter; no compound was filed as active;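 further: 0% = full activity with enzyme and -100% = basal without enzyme; dose as in the result columns while the protocol names 77 µM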
# Rango dissoc inh – inhibition of RanGTP-driven Rango-importin beta dissociation. Biochemical FRET Rango-importin beta, RanGTP-induced dissociation. Potency, µM (top dose mostly 46.1 µM), for the others: at the top dose activity change, negative = inhibition. 340,000 compounds, 0.071% hits; active means falling FRET ratio curve, often poorly fitted, with flat reads before Ran was added; inconclusive means other falling curves, or compound fluorescence or quenching; inactive means flat or rising ratio curve;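 further: potency means the concentration at half of the fitted maximal effect; % of control where 0% means no effect; nearly all actives have a fitted effect of over 45% in size; -100% = wells without RanGTP and RCC1; the record marks most hits as doubtful in a second field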
#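 Rango/importin beta premix (0.1/0.25 uM final), PBS + 1 mM DTT + 0.02% Tween-20 + 0.1% BSA; cpd 5 min RT; FRET pre-read; + RanGTP-RCC1 (0.6 uM Ran, 2 mM GTP, 0.2 uM RCC1); 45 min RT; FRET post-read, ex 430, em 486/530 nm.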
# miR-21 FLuc – miR-21 reporter, rising signal; Potency, µM (titrated, usually from 38.3 µM), inactives show top-dose reporter change, positive = more light; 340,000 tested, under 10 active; AID 2288; HeLa miR-21 FLuc reporter, luciferase, 48 h; active = well fitted rising curve with a large enough effect; inconclusive = small, poorly fitted or top-dose-only effect; inactive = no such curve, though single readings can be large or run the other way;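 further: % of control where 0% means no effect; miR-21 action dims this reporter so a rising signal means less miR-21 action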
#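 Luminescence from a firefly luciferase reporter carrying a miR-21 binding site downstream, stably expressed under a CMV promoter in HeLa cells that make miR-21 endogenously, reports miRNA modulation after 48 h compound exposure up to approximately 40uM final.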
# Rango complex inh – Rango-importin beta binding inhibition; Rango CFP/YFP FRET sensor + importin beta, 45 min; Potency, µM (highest dose often 92.2 µM), for the others: at the highest dose inhibition of complex formation; AID 540263; 340,000 compounds, 0.031% hits; Q14974; active = rising FRET ratio curve, often small or poorly fitted; inconclusive = mostly compound fluorescence or quenching in the first reads; inactive = flat curves in all reads;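 further: potency means the concentration at half of the fitted maximal effect; 0% = DMSO wells and 100% = buffer wells lacking importin beta; nearly all actives have a fitted effect of over 15% in size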
# Target sequence (Q14974 whole entry, looked up): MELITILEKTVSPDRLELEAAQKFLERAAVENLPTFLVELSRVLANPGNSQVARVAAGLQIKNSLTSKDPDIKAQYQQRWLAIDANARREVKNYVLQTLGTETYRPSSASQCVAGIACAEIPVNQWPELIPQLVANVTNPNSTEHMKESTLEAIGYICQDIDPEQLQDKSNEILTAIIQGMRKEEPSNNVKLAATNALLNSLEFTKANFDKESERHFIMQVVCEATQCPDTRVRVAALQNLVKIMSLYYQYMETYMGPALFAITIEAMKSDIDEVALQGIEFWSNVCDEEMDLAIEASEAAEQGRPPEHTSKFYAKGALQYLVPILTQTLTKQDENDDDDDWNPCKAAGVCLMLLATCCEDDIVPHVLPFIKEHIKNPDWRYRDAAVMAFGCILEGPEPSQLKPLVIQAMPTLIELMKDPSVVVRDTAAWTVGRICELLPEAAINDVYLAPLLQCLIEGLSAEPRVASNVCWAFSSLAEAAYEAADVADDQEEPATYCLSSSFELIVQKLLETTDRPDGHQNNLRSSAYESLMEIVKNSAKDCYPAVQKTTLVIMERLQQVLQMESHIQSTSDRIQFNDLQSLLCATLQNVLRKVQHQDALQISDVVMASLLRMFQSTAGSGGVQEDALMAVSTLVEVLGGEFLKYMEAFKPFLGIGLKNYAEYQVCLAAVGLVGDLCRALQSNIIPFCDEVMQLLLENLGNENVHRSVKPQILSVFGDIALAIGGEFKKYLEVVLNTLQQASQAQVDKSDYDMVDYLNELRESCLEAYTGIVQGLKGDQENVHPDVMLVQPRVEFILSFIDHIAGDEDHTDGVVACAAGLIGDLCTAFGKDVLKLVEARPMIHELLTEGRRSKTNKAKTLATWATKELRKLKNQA
#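 FRET biosensor (snurportin 1 IBB flanked by EYFP and cerulean), 50 nM, with compound 5 min, then 0.125 microM importin beta in PBS, 1 mM DTT, 0.02% Tween-20, 0.1% BSA. CFP/YFP ratio read after 45 min at room temperature; pre-read flags interference.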
# An asterisk follows results filed as active; ? = inconclusive; nt = no result given.
# Sample of the layout (three entries):
SMILES,GLA inh pH 4.5,Rango dissoc inh,miR-21 FLuc,Rango complex inh
O=C(N/N=C/c1ccc(-c2ccccc2)o1)c1ccccc1O,-10,-7%,-3%,-3.0%
Cc1cc(Cl)ccc1OCC(=O)NC(=S)Nc1ccc(Cl)cn1,nt,-20%,-11%,-2.9%
O=C(COc1ccccc1)NC1CCCc2ccccc21 (centres undefined),-6,-7%,-16%,-1.6%

# Main list (from the top)
SMILES,GLA inh pH 4.5,Rango dissoc inh,miR-21 FLuc,Rango complex inh
O=C(N/N=C/c1ccc(-c2ccccc2)o1)c1ccccc1O,-10,-7%,-3%,-3.0%
Cc1cc(Cl)ccc1OCC(=O)NC(=S)Nc1ccc(Cl)cn1,nt,-20%,-11%,-2.9%
O=C(COc1ccccc1)NC1CCCc2ccccc21 (centres undefined),-6,-7%,-16%,-1.6%
O=c1c2c(-c3cccs3)csc2[nH]c(=S)n1-c1ccccc1,7,-1%,-30%,-1.7%
C=CCNc1oc(-c2cccs2)nc1C#N,6,7%,-28%,6.8%
CC(=O)N1CCN(C(=O)CN2C(=O)NC(C)(c3ccc4ccccc4c3)C2=O)CC1 (centres undefined),nt,-21%,nt,-0.1%
Cc1ccc(NCC(=O)N/N=C\c2ccc([N+](=O)[O-])o2)cc1,2,-7%,28%,5.3%
COC(=O)c1ccc(/C=N/NC(=O)C2CC(=O)N(c3ccc(F)cc3)C2)cc1 (centres undefined),nt,11%,0%,-2.1%
CC1=NN(/C(=N\c2nnc(C)s2)Nc2ccccc2)[C@H](c2cccc3ccccc23)S1,-9,29%,2%,0.4%
Cc1cccc(NC(=O)Cc2nc(-c3c[nH]c(C(=O)N4CCCC4)c3)cs2)c1,nt,1%,nt,2.0%
O=[N+]([O-])c1cccc(-c2ccn[nH]2)c1,-4,0%,-8%,-0.2%
CCN1CCN(c2ccc(NC(=O)COc3ccc(Cl)cc3C)cc2)CC1,nt,2%,nt,1.2%

# The list goes on; the last 3 above are carried over.
SMILES,GLA inh pH 4.5,Rango dissoc inh,miR-21 FLuc,Rango complex inh
Cc1cccc(NC(=O)Cc2nc(-c3c[nH]c(C(=O)N4CCCC4)c3)cs2)c1,nt,1%,nt,2.0%
O=[N+]([O-])c1cccc(-c2ccn[nH]2)c1,-4,0%,-8%,-0.2%
CCN1CCN(c2ccc(NC(=O)COc3ccc(Cl)cc3C)cc2)CC1,nt,2%,nt,1.2%
COc1cc(NC(=O)CCc2nnc3ccc(N4CCCCC4)nn23)cc(OC)c1OC,nt,18%,-10%,2.7%
Cc1ncc(C[n+]2csc(C)c2C)c(N)n1,2,5%,-3%,0.6%
COc1ccccc1N(C)S(=O)(=O)c1ccc(C(=O)OCC(=O)N(C(C)C)C(C)C)cc1,6,2%,1%,3.5%
Cn1cnnc1SCC(=O)NNC(=O)COc1ccc(Br)cc1,10,-8%,-5%,-0.8%
CCC(OCC(O)CN1CCN(CCN2C(=O)c3cccc4cccc(c34)C2=O)CC1)c1ccccc1 (centres undefined),-3,-10%,?,-0.5%
O=C(CNc1ccc(F)cc1Cl)Nc1cccc(S(=O)(=O)N2CCCCC2)c1,nt,-16%,nt,0.3%
O=C(NCc1ccccn1)C1CCN(Cc2cccc(OCc3ccccc3)c2)CC1,-9,3%,-11%,3.1%
COC(=O)c1cc(OC)c(OC)cc1NC(=S)N1CCN(c2ccccc2)CC1,-4,3%,-5%,2.1%
CN(C(=O)CC1C(=O)NCCN1Cc1ccc(F)cc1)C1CCOCC1 (centres undefined),-1,1%,1%,-2.3%
O=C(COc1ccccc1)NNC(=O)c1cc2ccccc2o1,-4,-7%,-13%,-3.1%
O=C(O)c1cccc(Cn2cc(Cl)cn2)c1,-5,-8%,-1%,-2.1%
Cc1cc2nc(C(F)(F)F)[nH]c(=O)n2n1,-3,7%,2%,-0.7%
Cc1ccc(C(=O)COC(=O)CCc2nc3ccccc3[nH]c2=O)cc1C,-1,4%,-7%,6.1%
CN(CC(=O)Nc1cccc(F)c1)C(=O)CSc1ccccc1,nt,19%,nt,-3.0%
CN1/C(=C/C=C(/C#N)C(N)=O)C(C)(C)c2ccccc21,-5,?,11%,?
Cn1nc(-c2ccccc2)c(CO)c1Sc1ccccc1,-25,1%,-4%,4.6%
Cc1ccccc1NS(=O)(=O)c1ccc(C(=O)NCC(C)(C)N2CCOCC2)cc1,nt,-5%,nt,-4.3%
Cc1ccc2cc(C(c3nnnn3Cc3ccccc3)N3CCc4ccccc43)c(=O)[nH]c2c1 (centres undefined),1,23µM*,0%,?
CCC(CC)CN1CCN=C1Nc1ccccc1,nt,20%,nt,1.1%
Cc1cccc(NC(=O)CSc2nnnn2-c2ccc3c(c2)OCCO3)n1,3,5%,1%,-2.0%
O=C(OCC(=O)N1CCOCC1)c1ccc2[nH]c3c(c2c1)CCCC3,-26,-11%,-6%,-4.7%
O=C(CC(=O)Nc1ccccc1C(F)(F)F)Nc1ccccc1C(F)(F)F,nt,-9%,-3%,-4.7%
CCOc1ccccc1NC(=O)c1nc(-c2ccccc2)oc1C,-1,34%,-2%,?
Cc1nn(C)c(C(=O)N2CCOCC2)c1Cl,-4,6%,0%,3.1%
O=C(c1cccc(C(F)(F)F)c1)C1CCCN(Cc2cccn2-c2ncccn2)C1 (centres undefined),-15,-1%,14%,0.9%
CCC(C)N1C(=O)CCC1C(=O)O (centres undefined),-8,11%,-1%,-4.8%
Cc1nn(C(=O)N2CCCCC2)c(C)c1CN1C(=O)c2ccccc2C1=O,3,3%,1%,1.2%
CCOC(=O)N1CCN(C(=O)CCSc2ccccc2)CC1,-6,9%,-28%,11%
O=C(NC(=S)Nc1ccc(CN2CCOCC2)cc1)c1ccco1,-5,-5%,-31%,2.7%
CC(C(=O)N1CCc2ccccc21)n1cccc1 (centres undefined),1,1%,0%,3.7%
Nc1nc(SCC(=O)N2CCCC2)[nH]c(=O)c1NC(=O)c1ccco1,2,-1%,0%,-0.1%
CC1(C)NC(=O)N(CC(O)CN(c2cccc([N+](=O)[O-])c2)S(=O)(=O)c2ccccc2)C1=O (centres undefined),nt,11%,2%,7.4%
Cc1sc(NC(=O)CN2CCOCC2)c(C#N)c1C,4,20%,-9%,-1.8%
CC(C)C(=O)Nc1c(O)c2ccccc2[nH]c1=O,8,3%,-1%,-0.9%
N#Cc1c(-c2ccc(F)cc2)cc(-c2cccnc2)nc1N,16,34%,0%,0.0%
O=[N+]([O-])C(C1CCS(=O)(=O)C1)C1CCS(=O)(=O)C1 (centres undefined),0,7%,0%,0.4%
COc1ccc(S(=O)(=O)N(C)c2ccc(C(N)=O)cc2)cc1,5,-8%,-2%,-1.4%
Cc1cc(C(F)(F)F)n(-c2nc(C(=O)N/N=C/c3ccc(F)cc3)cs2)n1,-8,-8%,-7%,-5.8%
C=CCn1c(SCN2C(=O)c3ccccc3C2=O)nc2ccc(Cl)cc2c1=O,3,32%,4%,5.9%
Cc1ccc(-c2nc(NCCN3CCOCC3)c3ccccc3n2)cc1,-2,0%,-30%,-2.1%
O=C(O)CN1C(=O)/C(=C/c2cccc(Cl)c2)Oc2ccccc21,nt,7%,-7%,?
O=C(NCCCN1CCCC1=O)c1cccc(S(=O)(=O)Nc2ccc(Br)cc2)c1,nt,-1%,nt,0.0%
CC1CCCC(NC(=O)CSC2=Nc3ccccc3C3CC=NN23)C1C (centres undefined),nt,-3%,nt,3.9%
O=C(COC(=O)c1ccc(F)cc1)Nc1ccc2c(c1)OCO2,nt,-14%,nt,6.1%
COc1ccccc1N1CCN(Cc2cnc3ccc(Cl)cn23)CC1,nt,1%,-2%,-0.6%
CCOC(=O)N1CCN(C(=O)CSc2nc3c([nH]c4ccccc43)c(=O)n2C)CC1,0,-7%,5%,-2.6%
CCC(C)Nc1nnnc2c1sc1nc3c(cc12)COC(C)(C)C3 (centres undefined),4,41%,-36%,2.4%
CCCCn1c(N)c(N(CC(C)C)C(=O)c2cccs2)c(=O)[nH]c1=O,nt,7%,nt,-1.3%

# Of the compounds above, 4 contain a nitro group on carbon:
SMILES,GLA inh pH 4.5,Rango dissoc inh,miR-21 FLuc,Rango complex inh
Cc1ccc(NCC(=O)N/N=C\c2ccc([N+](=O)[O-])o2)cc1,2,-7%,28%,5.3%
O=[N+]([O-])c1cccc(-c2ccn[nH]2)c1,-4,0%,-8%,-0.2%
CC1(C)NC(=O)N(CC(O)CN(c2cccc([N+](=O)[O-])c2)S(=O)(=O)c2ccccc2)C1=O (centres undefined),nt,11%,2%,7.4%
O=[N+]([O-])C(C1CCS(=O)(=O)C1)C1CCS(=O)(=O)C1 (centres undefined),0,7%,0%,0.4%

# Further records:
SMILES,GLA inh pH 4.5,Rango dissoc inh,miR-21 FLuc,Rango complex inh
CC(=O)Nc1ccc(C(=O)N/N=C/c2ccccc2OC(=O)c2ccc(Cl)cc2)cc1,1,-14%,7%,-0.1%
CC1CCN(c2oc(-c3ccco3)nc2S(=O)(=O)c2ccccc2)CC1,nt,0%,-3%,1.6%
Cc1ccc(-c2noc(CN(C(=O)c3ccc4c(c3)OCO4)C(C)C)n2)cc1,nt,-2%,-4%,2.0%
COc1ccc(OC(C)C(=O)N(C)Cc2nc(-c3ccccc3)no2)cc1 (centres undefined),nt,-20%,11%,-3.1%
COc1cc(C(=O)N/N=C/c2sccc2C)cc(OC)c1OC,1,-2%,19%,2.4%
Cc1cccn2c(=O)c(C=O)c(Nc3ccc(S(N)(=O)=O)cc3)nc12,nt,-8%,-3%,0.0%
Cc1ccc(CSc2nnc(SCC(=O)N/N=C/c3ccc(C(=O)O)cc3)s2)cc1,5,4%,22%,0.5%
CCN(CC)CCCNC(=O)c1cn(-c2cccc(OC)c2)c(=O)c2ccccc12,nt,-2%,-1%,-2.2%
Oc1ccccc1C=NCCN=Cc1ccccc1O,-1,9%,5%,3.5%
CS(=O)(=O)c1ccc(Cl)c(NC(=O)CSc2n[nH]c(-c3cccs3)n2)c1,nt,13%,nt,?
Cc1cccc(CS(=O)(=O)Cc2ccc(C(=O)NC3CCCCC3)o2)c1,nt,16%,-1%,2.3%
CCCOc1ccccc1OCC(=O)Nc1cc(Cl)ccc1-n1cncn1,nt,?,nt,5.9%
Cc1cc(=O)[nH]c(SCCOc2ccc3c(c2)CCC3)n1,10,-7%,-12%,1.1%
COc1cccc(OC)c1/C=C/C(=O)NC1CCCCC1,nt,-1%,-10%,-1.7%
Cn1nc(C(F)(F)F)c2cc(C(=O)O)sc21,-5,-5%,5%,-0.3%
COc1ccc(C(CC(=O)N2CCOCC2)c2c(O)cc(OC)cc2OC)cc1 (centres undefined),2,23%,7%,0.1%
CSc1nc(S(=O)(=O)c2ccccc2)c(Cl)s1,4,8%,-5%,2.5%
CCOC(=O)C1=C(N)Oc2ccc3ccccc3c2C1c1cccc(O)c1 (centres undefined),nt,-20%,14%,0.9%
CCN1CCN(C2=NC(=O)/C(=C/c3ccc(C)o3)S2)CC1,-11,?,-7%,0.2%
Cc1ccc(S(=O)(=O)N(C)CC(=O)Nc2cccc3c2CCCC3)cc1,0,-9%,-1%,-0.9%
COCCCNC(=O)C1CC(=O)N(CCc2ccc(F)cc2)C1 (centres undefined),nt,-6%,-1%,-1.8%
C/C(=N\NC(=O)c1ccccc1)C1C2C=CC(C2)C1(C)C (centres undefined),nt,-4%,-34%,-1.4%
O=C(Cn1nc(-c2ccc(Cl)cc2)ccc1=O)N1CCN(c2ccccc2)CC1,7,3%,1%,-1.3%
CC(=O)N(C)N(C)c1cc(C)nc(N)n1,-8,0%,-4%,0.0%
COc1ccc(N2CCN(C(=O)c3cc(C4CC4)nn3-c3ccccc3)CC2)cc1,nt,-23%,nt,-1.6%
CCN(CC)C(=O)c1ccc2c3c(cccc13)C(=O)N(CCc1ccc(OC)c(OC)c1)C2=O,4,-13%,?,-0.5%
Cc1ccc(C)c(NC(=O)CN(C)C(=O)c2cccc(Oc3ccccc3)c2)c1,nt,-8%,nt,-0.6%
CSc1ccc(C2NC(=O)c3c(sc4c3CCN(C)C4)N2)cc1 (centres undefined),-1,?,-20%,?
CNCCCOc1ccc(C)cc1Br,-14,5%,-5%,-1.2%
COc1ccc(CC(=O)NNC(=O)c2cc(C)oc2C)cc1OC,nt,-13%,nt,3.4%

# An excerpt; count on the stated rates, not on these rows.
